HSD17B inhib: HSD17B dehydrogenase inhibition; Q99714; recombinant HSD17B10, NADH fluorescence kinetic; many of its hits are not listed in these tables; Potency, µM (highest dose often 57.1 µM), inactives show at the top dose activity change, negative = inhibition, actives largely listed as inhibitors; 7.6% of 75,000 active; active = well fitted inhibition curve with a large enough effect; inconclusive = small, poorly fitted or top-dose-only effect; inactive = no such curve, though single readings can be large or run the other way;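 also: the protocol describes HADH2 (HSD17B10) and not the HSD17B4 of the title; nearly all actives have a fitted effect of over 70% in size; most hits overshoot -100% by far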
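20 nM HADH2, pH 9.0 Tris/Tween; cpd preinc 15 min RT; start w/ 1 mM NAD+ + 90 uM b-hydroxybutyryl-CoA; kinetic fluor ex360/em450 q30s x 4 min; delta last-first.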
An asterisk follows results filed as active; ? = inconclusive; [ ] = remark or other dose. % is scaled to controls: 0 for no effect and ±100 for the full control effect; potency is read from the fitted curve at half-maximal effect.

SMILES	HSD17B inhib
Cc1ccc(-c2nnc3sc(-c4ccc5c(c4)OCCO5)nn23)cc1	1.0%
Cc1ccc(C)c(OCC(=O)Nc2nonc2NC(=O)COc2cc(C)ccc2C)c1	-13.1%
O=C1c2ccccc2C(Nc2ccc3c(c2)OCCO3)N1Cc1ccccc1 (stereo unspecified)	-8.6%
COc1ccc(CN(Cc2cccnc2)S(=O)(=O)c2ccc(-n3cnnn3)c(C)c2)cc1OC	6.9%
COc1ccccc1C(=O)N1CCN(C2CCN(Cc3ccccc3)CC2)CC1	5.8%
CCCC(=O)Nc1cccc(-c2nc3cc(C)c(C)cc3o2)c1	25.1µM*
COc1ccc(NC(=O)NCc2ccccn2)cc1OC	6.6%
COc1ccccc1N1CCN(C(=O)c2ccc(S(=O)(=O)N3CCCCC3)cc2)CC1	11.9%
CCC(CC)C(=O)NCCc1cc2c(OC)ccc(OC)c2[nH]c1=O	-9.8%
CCOC(=O)C1C2C=CC3(CN(c4ccc(Cl)c(F)c4)C(=O)C13)O2 (stereo unspecified)	3.2%
Cc1ccccc1Nc1nc(N)nc(CSc2nnnn2-c2ccccc2)n1	-1.6%
Cc1ccc2nc(N3CCN(Cc4ccc(F)cc4)C3=O)c(C)cc2c1	-13.0%
COC(=O)c1[nH]c2ccccc2c1NC(=O)CN1CCN(C(=O)c2ccco2)CC1	?
CCOC(=O)c1cnc(=O)[nH]c1C	7.8%
Cc1ccc(O)c(NC(=O)C2CC(c3c(F)cccc3Cl)=NO2)c1 (stereo unspecified)	0.3%
CCOc1ccc(/C(=N\O)C(C)NO)cc1 (stereo unspecified)	-9.9%
O=c1c2[nH]c3ccccc3c2ncn1CCCn1ccnc1	31.6µM*
COC(=O)CCC(=O)Nc1cccc(Cl)c1	5.3%
CCCn1c(SCC(=O)NCc2ccco2)nnc1C(C)C	-14.8%
COc1ccccc1NC(=O)CC1C(=O)NCCN1C(=O)Nc1ccc(Cl)c(Cl)c1 (stereo unspecified)	-15.3%
CC(=O)NC12CC3CC(C1)CC(C(=O)OCC(=O)Nc1ncc(Cl)c(C)c1Cl)(C3)C2	-20.9%
Cc1cc(C)c(C#N)c(SCC2COc3ccccc3O2)n1 (stereo unspecified)	-5.0%
CSc1cccc(NC(=O)CN(c2ccc(C)cc2C)S(C)(=O)=O)c1	-1.4%
COc1cccc(-c2cc(C(=O)N3CCCCCC3)no2)c1	-0.1%
CCn1c(-c2ccc(N(C)C)cc2)nc2ccccc21	-4.4%

Compounds from the list above that have an aryl methoxy group, in the order listed:
SMILES	HSD17B inhib
COc1ccc(CN(Cc2cccnc2)S(=O)(=O)c2ccc(-n3cnnn3)c(C)c2)cc1OC	6.9%
COc1ccccc1C(=O)N1CCN(C2CCN(Cc3ccccc3)CC2)CC1	5.8%
COc1ccc(NC(=O)NCc2ccccn2)cc1OC	6.6%
COc1ccccc1N1CCN(C(=O)c2ccc(S(=O)(=O)N3CCCCC3)cc2)CC1	11.9%
CCC(CC)C(=O)NCCc1cc2c(OC)ccc(OC)c2[nH]c1=O	-9.8%
COc1ccccc1NC(=O)CC1C(=O)NCCN1C(=O)Nc1ccc(Cl)c(Cl)c1 (stereo unspecified)	-15.3%
COc1cccc(-c2cc(C(=O)N3CCCCCC3)no2)c1	-0.1%

Next part
SMILES	HSD17B inhib
CCOc1ccc(C2N(c3ccc(F)cc3)C(=O)C3CCCN32)cc1 (stereo unspecified)	6.4%
COc1ccc2c(c1)c1ncn(Cc3ccco3)c(=O)c1n2C	25.1µM*
CCCCn1nnnc1NCc1cc(OC)c(OC)c(OC)c1	13.8%
N#CCC(=O)NC(=O)NCC1CC1	26.3%
Cc1cc(C(=O)CSCCCn2c(=O)[nH]c3ccccc32)c(C)n1C	-29.8%
COc1cc(OC)cc(C(=O)NCC(=O)N2CCCCC2)c1	-3.0%
O=C(C1CC1)N1CCc2cc(S(=O)(=O)NC3CCN(Cc4ccccc4)CC3)ccc21	0.1%
O=C1C(Cl)=C(NC2CCc3ccccc32)C(=O)c2ncccc21 (stereo unspecified)	6.0%
CCOC(=O)c1c(NS(C)(=O)=O)sc2c1CCC(C)C2 (stereo unspecified)	-5.9%
Cn1c(=O)cc(OCC(=O)NCCCN2CCN(c3cccc(Cl)c3)CC2)c2ccccc21	-8.3%
O=c1cc(-c2ccncc2)oc2ccccc12	-2.5%
COc1ccc(-n2c(SCC(=O)NCc3cccs3)nnc2-c2ccoc2C)cc1	?
CC1CCCCC1NC(=O)CSc1nc2ccccc2c(=O)n1Cc1ccco1 (stereo unspecified)	-0.5%
CCn1nc(CC(=O)Nc2nnc(CC(=O)N3CCCC3)s2)c2ccccc2c1=O	0.2%
Cc1c(C(=O)NC2CCCCC2)sc2nc3ccc(N)cc3n12	-7.8%
CCCOC(=O)c1cccc(NC(=O)c2cccnc2)c1	-1.8%
O=C(NCC(=O)N(CC1CCCO1)C(C(=O)NC1CCCCC1)c1ccc(F)cc1)c1ccco1 (stereo unspecified)	0.4%
COc1ccccc1CNC(=O)CCCn1c(=O)c2ccccc2n(CC(=O)NC2CCCC2)c1=O	-7.5%
Cc1ccc(S(=O)(=O)Cc2csc(N)n2)cc1	9.0%
O=C(C1CCCCC1)N1CCC(c2nc3c(nnn3Cc3c(F)cccc3Cl)c(=O)[nH]2)CC1	7.7%
COc1ccc(-c2nc(CSCC(=O)N3CCc4ccccc43)c(C)o2)cc1OC	3.8%
CCOC(=O)c1[nH]c2c(c1C)C(=O)CC(c1ccc(F)cc1)C2 (stereo unspecified)	5.9%
CCc1ccc(NS(=O)(=O)c2cc(OC)ccc2OC)cc1	2.2%
O=S(NCc1ccco1)C12CC3CC(CC(C3)C1)C2 (stereo unspecified)	-8.1%
CCNc1nc(NCC)nc(OCCNS(=O)(=O)c2cc(C)ccc2C)n1	0.5%
The results go on.
SMILES	HSD17B inhib
O=C(CN1C(=O)CCSc2ccccc21)Nc1ccccc1	-2.6%
CCCc1cc(=O)n2[nH]c(C)nc2n1	-0.4%
COCCCn1c2nc3ccccc3nc2c2c(=O)n(-c3ccccc3OC)cnc21	-25.8%
COc1cccc(Oc2cn[nH]c2-c2ccc(O)cc2O)c1	-2.3%
CCCCn1c(SCC(=O)N2CC(=O)Nc3ccccc32)nnc1-c1ccoc1C	3.2%
COc1cccc(C(CC(=O)NCCN2CCOCC2)NS(=O)(=O)c2ccc(C)cc2)c1OC (stereo unspecified)	15.2%
CCCn1nc(NS(C)(=O)=O)c2cc3cccc(C)c3nc21	9.5%
O=C(COc1ccccc1)Nc1nn[nH]n1	-4.1%
O=C(CSCSCC(=O)NCC1CCCO1)NCC1CCCO1 (stereo unspecified)	11.7%
CCCCNCCCOc1cccc(Cl)c1	-2.7%
C=C1CSc2nc(=O)c3c4c(sc3n21)CCCC4	-4.2%
CCOC(=O)c1c(C)[nH]c(C(=O)COC(=O)c2ccccc2NC(=O)c2ccco2)c1C	25.1µM*
COc1cccc(-c2nc(S(=O)(=O)c3ccccc3)c(N3CCOCC3)o2)c1	-22.1%
O=C(NCCCN1CCOCC1)c1ccc(Cc2nc3ccccc3[nH]2)cc1	-1.0%
CCOC(=O)C1CCN(C(=O)C2CCN(S(=O)(=O)c3c(C)noc3C)CC2)CC1	7.6%
Cc1occc1C(=O)Nc1cccc(C(=O)NCc2ccccc2)c1	5.5%
CCC(=O)c1c(O)cc(O)cc1O	-2.1%
Cc1c(S(=O)(=O)Nc2ccc3c(c2)OCCO3)c(=O)n(C)c(=O)n1C	0.7%
COc1ccc2nc(NC(=O)c3cnccn3)sc2c1	-25.3%
CN1C(=O)N(C)C2(c3ccccc3)NC(=O)NC12c1ccccc1 (stereo unspecified)	9.2%
O=C(Cn1nnc(-c2ccc(S(=O)(=O)N3CCCC3)cc2)n1)Nc1ccccc1-n1cccc1	-3.0%
O=C(C1CCC1)N(CCc1ccccc1)Cc1nc2ccccc2c(=O)[nH]1	2.5%
O=C(Cn1cnc2c(cnn2-c2ccc(F)cc2)c1=O)OCc1ccccc1	-1.9%
O=C(Cc1c(F)cccc1Cl)NCC1CCCO1 (stereo unspecified)	5.7%
CCOc1ccc2c(c1)sc1nc(C(=O)OC)cc(=O)n12	125.1%[activator]

The closing 2 records of the part above come first, to join the parts.
SMILES	HSD17B inhib
O=C(Cc1c(F)cccc1Cl)NCC1CCCO1 (stereo unspecified)	5.7%
CCOc1ccc2c(c1)sc1nc(C(=O)OC)cc(=O)n12	125.1%[activator]
CN(C1CCCCC1)S(=O)(=O)c1ccc(S(=O)(=O)N2CCCC2)cc1	2.2%
CC(C)C(=O)Nc1nnn(C)n1	7.1%
O=c1oc2cc(O)ccc2s1	-6.7%
Cc1ccccc1-n1c(Cn2c(=O)sc3ccccc32)nnc1SCC(=O)Nc1nccs1	-2.5%
c1ccc(Cn2nnnc2C(c2cccs2)N2CCCCCC2)cc1 (stereo unspecified)	-9.6%
Cc1onc(-c2ccccc2)c1C(=O)NCc1ccco1	1.1%
CC(C)C1=C2CCCCC2NC(=O)N1 (stereo unspecified)	?
Fc1cccc(-c2cc3nc4c(c(N5CCOCC5)n3n2)CCCC4)c1	?
CCc1cc2c(nc1CC)CCN(CC/C(C)=N/OC[C@@H](C)[C@H](OCc1ccccc1)C(C)C)C2	-3.4%[11.4 µM]
CCOC(=O)C1CCCN(c2c(NCCCN3CCCC(C)C3)c(=O)c2=O)C1 (stereo unspecified)	1.9%
CN(C(=O)CN1CCC(NC(=O)C2CCCCC2)CC1)C1CCCCC1	5.2%
CC1=C(C(=O)OC(C)C)C(C)C(C(=O)OC(C)C)=C(C)N1	?
CC(C)Oc1ccc(C2NC(=O)NC2=O)cc1 (stereo unspecified)	-14.2%
CC(=O)Nc1cc(C(=O)N2CCOCC2)ccc1S(=O)(=O)c1ccc(C)cc1	-2.2%
CC(=O)N(CCP(=O)(c1ccccc1)c1ccccc1)Cc1ccco1	-2.2%
O=C(CSCCO)Nc1cccc2ccccc12	-0.7%
CCc1nnc(NC(=O)CSc2nnc(-c3ccccc3OC)n2-c2ccccc2)s1	-4.4%
Oc1ccccc1Oc1ncc(Br)c(N2CCOCC2)n1	-14.2%
O=C(O)COc1ccccc1C1C2C(=O)N(c3ccc(F)cc3)C(=O)C2ON1c1ccccc1 (stereo unspecified)	-14.2%
Cc1ccc(N2C(=O)c3oc4ccccc4c(=O)c3C2c2cccnc2)nc1 (stereo unspecified)	6.0%
CN(C)S(=O)(=O)c1cccc(C(=O)OCC(=O)N2c3ccccc3NC(=O)C2(C)C)c1	10.1%
CCCC(=O)Nc1ccc2oc(-c3ccc(OC)c(Br)c3)nc2c1	25.1µM*
O=C(Nc1ccc(F)cc1)c1oc2ccccc2c1NC(=O)C1CCCC1	?
CCOC(=O)c1ccc(NC(=O)Nc2ccc3c4c(cccc24)C(=O)N3CC)cc1	0.6%
Cc1ccnc2ccc(-c3nc4ccccc4o3)cc12	25.1µM*

4 records picked at random from the list so far:
SMILES	HSD17B inhib
O=C(Nc1ccc(F)cc1)c1oc2ccccc2c1NC(=O)C1CCCC1	?
Oc1ccccc1Oc1ncc(Br)c(N2CCOCC2)n1	-14.2%
CCOC(=O)c1ccc(NC(=O)Nc2ccc3c4c(cccc24)C(=O)N3CC)cc1	0.6%
c1ccc(Cn2nnnc2C(c2cccs2)N2CCCCCC2)cc1 (stereo unspecified)	-9.6%

The listing continues:
SMILES	HSD17B inhib
O=C(CCSCCc1ccccn1)Nc1ccccn1	-3.4%
COC(=O)C1=C(C)N(C)C(C)=C(C(=O)OC)C1c1ccc(F)c(Br)c1	-14.5%
COc1cc(C(=O)Nc2ccc(-n3cnnn3)c(C)c2)cc(OC)c1OC	3.1%
Cc1ccc(S(=O)(=O)Cn2nnnc2C(c2ccccn2)N2CCN(c3ccccc3)CC2)cc1 (stereo unspecified)	-3.7%
CCOC(=O)C(CC)Sc1ncnc2nc[nH]c12 (stereo unspecified)	3.7%
CN(CC(=O)NC1CCCCC1)S(=O)(=O)c1ccc(Cl)cc1	9.7%
O=C(O)CCSCc1ccccc1F	8.3%
CCCOc1ccc(C(=O)N2CCN(c3ccc(NC(=O)CC)cc3Cl)CC2)cc1	3.8%
O=C(c1ccco1)N1CCN(CC2CC3C=CC2C3)CC1 (stereo unspecified)	0.3%
Cc1cnc(CNc2cc(-c3ccccc3CN(C)C)ncn2)cn1	?
Cc1ccnc(N(C(=O)c2cccs2)C(=O)c2cccs2)c1	-14.0%
CC(C)c1cc(C(=O)NCc2ccco2)no1	-11.8%
O=C(Nc1cnc2ccccn2c1=O)c1ccc(F)cc1	-9.6%
Cc1ccccc1-c1nc(CS(=O)(=O)CC(=O)N(C)C2CCCCC2)c(C)o1	-14.2%
CCOC(=O)C1CCCN(c2c(NCc3ccco3)c(=O)c2=O)C1 (stereo unspecified)	-3.1%
CCc1ccc(C(=O)NCC2COc3ccccc3O2)o1 (stereo unspecified)	-1.1%
CCOC(=O)Nc1ccccc1N1C(=O)c2ccccc2C1=O	0.3%
Cc1nc2ccc(N)cc2c(=O)n1Cc1ccc(Cl)cc1	25.1µM*
COC(=O)c1ccc(OCCN2C3=NCCN3c3ccccc32)cc1	5.6%
COCn1c(-c2cccc(Br)c2)nc2ccccc21	?
Cc1cc(CC(C)C)n(-c2nc3ccccc3c(=O)n2OCC(N)=O)n1	-7.3%
Cc1cc(S(=O)(=O)N(C)CCc2ccccc2)ccc1-n1cnnn1	3.1%
Cn1c(SCC(=O)N2CCOCC2)nnc1-c1ccc(NC(=O)c2ccccc2F)cc1	-3.2%
Cc1cc(=O)n2nc(N3CCC(C(=O)N4CCN(Cc5ccccc5)CC4)CC3)sc2n1	-2.0%
CCOc1cc(-c2ccccc2)nc(N)n1	0.7%
COc1ccc(COC(=O)N/N=C2/C[C@@H](O)[C@@H](O)[C@@H]3[C@@H]4C(=O)N(C[C@@H]5CCCO5)C(=O)[C@H]4CC[C@@H]23)cc1	-1.0%[11.4 µM]
CC1(C)CC(=O)N(CC(=O)NCc2ccccc2)c2ccccc2S1(=O)=O	-1.6%

Screens: PubChem, National Center for Advancing Translational Sciences (NCATS)

Some of the compounds tested (hit frequency here may not be typical).
